Polio RdRp inh – poliovirus RdRp elongation inhibitors, primary screen, biochemical, fluorescence polarization, total intensity. % elongation, % (compound at 16.7 µg/mL). poliovirus polymerase elongation; hits give low values. hit rate 0.66% among 150,000. Genome polyprotein (Poliovirus type 1 (strain Mahoney)), P03300. AID 588519, 2011; in the data active = % elongation below about 90%; also: some results filed as inactive read as strong as hits
Mtb MenB inh – M. tuberculosis MenB inhibitors, primary screen, biochemical, absorbance | inhibition, %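 (about 12 µg/mL by stock and volumes)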 | hit rate 0.43% among 100,000 | MenB enzyme assay, absorbance read-out; some hits fall short of the stated cut;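 active = mean of two replicates above 30%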;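 also: 0% = no compound and 100% = wells with inactive enzyme; the first replicate is given; strong numbers were not always called active; inactives centre near -10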
Target sequence (P9WNP5 whole entry, looked up): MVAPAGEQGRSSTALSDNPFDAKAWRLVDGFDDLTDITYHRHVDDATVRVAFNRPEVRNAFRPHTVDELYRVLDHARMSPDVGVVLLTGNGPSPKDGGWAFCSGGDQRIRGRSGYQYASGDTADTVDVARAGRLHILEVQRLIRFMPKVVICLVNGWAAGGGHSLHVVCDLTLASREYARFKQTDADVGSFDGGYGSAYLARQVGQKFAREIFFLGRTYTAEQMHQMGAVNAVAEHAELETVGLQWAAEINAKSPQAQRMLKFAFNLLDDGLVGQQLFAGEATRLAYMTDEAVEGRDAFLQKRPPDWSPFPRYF
Mtb MbtI inh – MbtI salicylate synthase inhibitors, primary screen, biochemical, fluorescence intensity. inhibition, %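 (about 17 µg/mL by stock and volumes)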. purified MbtI enzyme, fluorescence intensity read-out. P9WFX0. hit rate 0.89% among 100,000;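 active = above 50% in both replicates, above 80% if mildly self-fluorescent; inactive = the rest, strongly fluorescent compounds included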;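 also: 0% = mean of negative and 100% = mean of positive controls; one replicate is shown; some compounds called inactive have numbers as strong as hits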
Target sequence (P9WFX0 whole entry, looked up): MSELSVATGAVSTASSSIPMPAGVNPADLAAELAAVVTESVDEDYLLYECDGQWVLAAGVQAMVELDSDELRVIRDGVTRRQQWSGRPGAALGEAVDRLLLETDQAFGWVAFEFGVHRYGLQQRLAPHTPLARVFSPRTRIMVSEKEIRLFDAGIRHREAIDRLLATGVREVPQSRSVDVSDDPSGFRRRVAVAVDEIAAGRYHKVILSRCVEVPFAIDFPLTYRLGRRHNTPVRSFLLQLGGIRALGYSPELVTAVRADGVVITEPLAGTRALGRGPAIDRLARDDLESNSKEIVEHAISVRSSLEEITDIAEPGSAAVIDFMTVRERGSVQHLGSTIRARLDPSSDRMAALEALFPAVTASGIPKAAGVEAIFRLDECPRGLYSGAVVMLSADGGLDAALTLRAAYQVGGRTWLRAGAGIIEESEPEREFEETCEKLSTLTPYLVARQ
Polio RdRp inh intensity – recorded beside Polio RdRp inh, whose call it bears; % elongation; measured here: total intensity read-out; formula for this scale not given here;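 total fluorescence in place of polarization; lower means less elongation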
* hit, by the source's call; i = inactive; . = not tested or not shown.

SMILES	Polio RdRp inh intensity	Mtb MbtI inh	Polio RdRp inh	Mtb MenB inh
CCc1cccc(CC)c1NC(=O)CSc1ncn[nH]1	105	-19	102	.
COc1ccc2cc(C(=O)Nc3ccc(O)cc3)sc(=O)c2c1OC	104	6	104	-36
COC(=O)COc1ccc(S(=O)(=O)Nc2ccc(OC)cc2)cc1C	100	-8	101	-4
CCCn1c(SCC(=O)NC(=O)NCc2ccccc2)n[nH]c1=O	109	-4	103	9
C=CCN1C(=O)/C(=C2/Sc3ccccc3N2CC)SC1=S	108	7	102	-14
CN(C(=S)NCCc1ccccc1)C1CCCCC1	113	.	108	-22
CCC(=O)N1N=C(c2ccccc2)CC1c1cc2cc(OC)ccc2nc1Cl (stereo not drawn)	107	-13	105	-4
O=C(NCc1cccs1)C1CCN(c2ncnc3c2sc2cccc(F)c23)CC1	110	-7	105	1
CN(C)C(CNC(=O)C1(c2ccccc2)CC1)c1ccco1 (stereo not drawn)	111	-15	109	0
O=C1/C(=C/c2ccc(-c3ccccc3Cl)o2)SC(=S)N1CC1CCCO1 (stereo not drawn)	153	.	145	15
CCOC(=O)C1C2C=CC3(CN(C4CCCC4)C(=O)C13)O2 (stereo not drawn)	109	.	103	-16
CC(=O)Nn1nc2c(n1)C(=NNC(=O)c1ccccc1)c1nn(NC(C)=O)nc1C2=NNC(=O)c1ccccc1	102	-2	98	12
O=C(c1ccc(Br)cc1)c1cc2ccccc2o1	103	-5	102	-75
Cc1cccc(OC(C)C(=O)N2CCCCC2)c1 (stereo not drawn)	103	-37	101	-48
CCc1ccc(OCC(=O)N2CCc3ccccc32)cc1	94	.	104	2
COC(=O)c1ccc(OC(=O)N2CCOCC2)cc1	104	10	100	-23
CCCNC(=O)Nc1nc2ccc(OC)cc2s1	101	7	104	-9
CS(=O)(=O)Nc1ccc2c(c1)OCO2	103	-3	105	-8
CC1CN(CC(=O)c2c(N)n(Cc3ccccc3)c(=O)n(C)c2=O)CC(C)O1 (stereo not drawn)	97	7	102	-7
NC(=O)Cn1nc2c3c(cccc3c1=O)-c1ccccc1-2	101	6	101	8
COc1ccc(C(=O)COc2ccccc2OC)cc1	107	-4	103	.
O=c1[nH]nc(SCc2cccc(Oc3ccccc3)c2)c(=O)[nH]1	101	14	99	-11
Cc1cc(N2CC34C=CC(O3)C(C(=O)O)C4C2=O)no1 (stereo not drawn)	102	-9	102	-5
CNC(=O)Nc1ccc(C(=O)OC)cc1	103	.	103	-19
CCOC(=O)c1cc(C#N)c(C)nc1N1CCN(S(=O)(=O)c2ccccc2)CC1	108	-10	104	2
CCCNC(=O)Cn1nc(C(F)(F)F)cc1C	105	.	103	-3
COc1ccccc1NC(C)=O	101	-7	101	-34
CC(C)(O)C#Cc1ccc(C(=O)N2CCC(C(O)(c3ccccc3)c3ccccc3)CC2)o1	108	.	106	-16
CCOC(=O)C1=C(CN2CC=C(c3ccccc3)CC2)NC(=O)NC1c1cccc(OC)c1OC (stereo not drawn)	103	-10	101	-14
CN(C)Cc1c(N)cc2ccccc2c1-c1ccccc1	102	.	103	-11
CCCCC/C=C\C=C\[C@@H](O)CCCCCCCC(=O)O	103	.	103	-5
COc1ccc(CC(=O)Nc2c(-c3ccc(F)cc3)nc3ccccn23)cc1	96	108	97	-12
Cc1nc(Nc2nc3ccccc3o2)ncc1C(=O)Nc1cccc(C(F)(F)F)c1	103	-17	99	-2
CSc1cccc(NS(=O)(=O)c2cccs2)c1	106	4	101	-19
Cc1c(C(=O)Nc2ccc(OC(F)F)cc2)oc2ccc(Cl)cc12	105	-4	102	-36
CCN(CC)C(=O)CSc1nsc(SCC(=O)N(CC)CC)c1C#N	102	3	106	-40
CC1CCCCC1NC(=O)COc1ccc(-n2cnnn2)cc1 (stereo not drawn)	104	4	104	4
O=C1CCc2cc(C3=CSC4=NCCN34)ccc2N1	93	32	101	9
Cc1ccc(S(=O)(=O)n2cccn2)cc1C	101	-8	100	-48
O=C1Nc2ccc(F)cc2C12OCCO2	103	4	104	7
Cn1c(SCc2ccc3c(c2)OCO3)nc2ccccc2c1=O	108	.	105	-4
NS(=O)(=O)c1ccc(CCNC(=O)CN2CC(=O)Nc3ccccc32)cc1	97	14	100	-18
N#Cc1cn(CC(=O)N2CCc3ccccc32)c2ccccc12	110	.	111	-9
COc1ccc(OC)c(S(=O)(=O)Nc2cc3c(cc2N2CCOCC2)n(C)c(=O)n3C)c1	102	1	102	7
CCc1ccc(CCC(=O)Nc2ccc(S(N)(=O)=O)cc2)o1	104	-3	102	-2
CN=C(Nc1ccnn1C(C)C)c1ccccc1	110	-11	107	-6
CCc1nc2ccc(C(=O)NCCCN3CCCCC3)cc2nc1CC	105	4	99	-22
O=C(c1ccccc1)c1nc2c(ccc3ccccc32)o1	110	7	106	-9
CCOC(=O)COc1ccc(Br)cc1C#N	102	.	104	-1
CC(C)Sc1nc2ccccc2c(=O)n1-c1ccc(F)cc1F	97	-2	103	.
C=CCSc1nnc2c(n1)OC(c1ccc(-c3ccc(F)cc3)o1)N(C(C)=O)c1ccccc1-2 (stereo not drawn)	103	-5	103	-28
O=C(Nn1c(=S)[nH]c2ccccc2c1=O)c1ccncc1	102	3	100	5
COc1ccc(-c2noc(N3CCC(C(=O)N4CCN(c5ccccc5)CC4)CC3)n2)cc1	103	-24	102	5
CCC(C)NC(=O)c1n[nH]c(=O)c2ccccc12 (stereo not drawn)	107	-2	100	-9
Cc1cc2ccccc2n1-c1ccc(C(=O)N2CCc3ccccc32)s1	102	0	101	-1
COc1ccc(C(C(=O)NC2CCCCC2)N(Cc2ccc3c(c2)OCO3)C(=O)c2cnccn2)cc1OC (stereo not drawn)	98	-5	102	-60
Cc1cc(N)ccc1-c1ccc(CO)o1	103	91	102	-4
S=C1CSc2ccccc2N1	91	78*	92	-13
Cn1cnnc1SCC(=O)N1CCCC1	102	4	102	5
CC(C)CNC(=O)C1CCCN(C(=O)NCc2ccccc2)C1 (stereo not drawn)	104	-9	102	-25

More entries:
SMILES	Polio RdRp inh intensity	Mtb MbtI inh	Polio RdRp inh	Mtb MenB inh
CCN(CC)CCCNc1nc2cc(OC)c(OC)cc2c2nc(-c3cccnc3)nn12	67	0	92	6
O=C(Nc1ccc(NC(=O)c2ccccc2F)cn1)c1ccco1	102	10	100	-18
Cc1cc2oc(=O)cc(COC(=O)c3cccc(N(C)C)c3)c2cc1C	106	9	98	-11
CCC1CCCCN1C(=O)Cn1c(=O)n(CCC(=O)NCc2ccc3c(c2)OCO3)c(=O)c2ccccc21 (stereo not drawn)	102	-4	100	12
CCN1CCCC1CNC(=O)CCn1c(=O)c2cccn2c2cccnc21 (stereo not drawn)	103	48	104	-10
COC(=O)c1ccc(CSc2c(C)[nH]c3ccccc23)o1	104	7	100	12
Oc1[nH]c2ccccc2c1C=NCc1ccccc1	103	4	98	-9
CN1CCc2cc3c(cc2C1O)OCO3 (stereo not drawn)	101	i	100	-2
O=C(CN1CCN(C(=O)c2ccccc2)CC1)Nc1cccc2nsnc12	108	-4	103	5
Clc1ccnnc1N1CCCC2CCCCC21 (stereo not drawn)	105	-18	105	-3
CCOC(=O)Cc1nnc2c3nnc(CC(=O)OCC)n3c3nonc3n12	104	2	103	-10
O=C(OCC(=O)c1cc2ccccc2o1)c1cc(F)cc(F)c1	144	-12	135	1
CCCN(CC1CC1)C(=O)COc1ncnc2sccc12	103	4	100	-7
COc1ccccc1C1CCN(Cc2cn[nH]c2-c2ccc(F)cc2)CC1	99	3	104	-12
CC(=S)Nc1ccc(Nc2ccccc2)cc1	105	10	100	-4
Cn1ncc(NCCc2ccncc2)c(Cl)c1=O	110	-6	109	1
CC(C)C(Nc1ncnc2c1oc1ccccc12)C(=O)O (stereo not drawn)	102	18	102	19
COC(=O)c1cccc(NC(=O)COC(=O)c2cc3ccccc3o2)c1	102	.	101	-23
CC(C)Sc1nc(-c2cccs2)cc(C(F)(F)F)c1C#N	116	-68	117	5
CCCc1c(NC(=O)Nc2ccc(Cl)cc2Cl)cnn1-c1ccccc1	98	-5	102	-24
COc1cccc(C(=O)NCCS(=O)(=O)N2CC(C)CC(C)C2)c1 (stereo not drawn)	109	14	103	-7
CCOC(=O)c1oc2ccccc2c1CSc1nnnn1-c1ccc(OC)cc1	107	-8	105	3
Cc1cccc(N2CCN(C(c3ccccc3F)c3nnnn3C(C)C)CC2)c1C (stereo not drawn)	99	-8	103	-43
Cc1cc(-c2ccc(/C=C3/C(=O)NC(=O)N(C4CCCCC4)C3=O)o2)ccc1Br	110	.	105	-7
CCCOc1ccc(N)cc1OCCC	100	-5	101	.
CC1(C)Oc2ccc3ccc(=O)oc3c2-c2cn[nH]c21	102	-48	102	-48
COC(CN(C)S(=O)(=O)c1ccc2c(c1)oc(=O)n2C)OC	99	1	100	-13
CCCn1c(SCC(=O)NCC23CC4CC(CC(C4)C2)C3)n[nH]c1=O	101	22	101	-23
CC1=C(C(=O)NC2CCCCC2)C2(CCCCC2)OC1=O	99	0	104	-19
O=c1[nH]c(C2CCCNC2)nc2c1nnn2Cc1ccccc1 (stereo not drawn)	102	-4	103	-36
CCCSc1nc2ccccc2n1CC(=O)Nc1ccc(C(N)=O)cc1	107	-10	101	-9
CCCCn1c(-c2ccccc2)n[nH]c1=S	100	5	99	-8
CC1CN(C)CC(C)C1(O)c1ccccc1 (stereo not drawn)	103	.	109	-2
Brc1ccc(Cn2ccnc2)cc1	103	-21	104	1
COc1ccccc1NC(=O)C(C)NC(C)C (stereo not drawn)	105	-3	105	-15
O=C(NCCCN1CCN(C2CCCCC2)CC1)C1CCCN(S(=O)(=O)N2CCCCC2)C1 (stereo not drawn)	105	-6	101	-10
N#Cc1cccc(NC(=O)c2c(Cl)nc3sccn23)c1	100	0	101	.
O=C(NCc1ccccc1F)c1cnc(N2CCCC2)nc1	103	-1	99	14
Cc1ccccc1CSCc1nc(N)nc(Nc2ccccc2C)n1	106	-10	101	-3
COc1cccc(COCC(O)CN2CCC(C(N)=O)CC2)c1 (stereo not drawn)	104	99*	101	-9
Cn1ccsc1=NC(=O)/C=C/c1ccc(S(=O)(=O)N2CCOCC2)cc1	107	11	103	-18
O=C(O)c1ccc(/C=N/n2cc(-c3ccccc3)[nH]c2=S)cc1	98	-5	104	-101
CC(C)(C)c1cc(C(C)(C)C)n(-c2ccc(C(=O)O)cc2)n1	97	9	104	-7
O=C(Nc1ccccc1)Nc1cc(C2CC2)nn1-c1ccccc1	99	0	102	4
CC(C)(N)CN1CCCC1	101	-2	103	24

Assay outcomes as filed in PubChem BioAssay.
